RE007 growth inh: less growth of the S. pombe RE007 Vpr strain; S. pombe RE007 Vpr strain, BacTiter-Glo ATP luminescence, 24 h; control for the full effect not named in the record; Potency, µM (titrated, usually from 92.2 µM), for the others: top-dose activity change, negative = less growth; 0.21% of 360,000 active; active = well fitted falling curve with a large enough effect; inconclusive = small, poorly fitted or top-dose-only effect; inactive = no such curve, though single readings can be large or run the other way;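 note: % is set by controls: 0 for no effect and ±100 for the full control effect; nearly all actives have a fitted effect of over 50% in size; the assay follows cell death caused by Vpr and the record does not say whether a fall means rescue or toxicity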
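Fission yeast strain RE007, carrying one chromosomally integrated HIV-1 vpr copy, was seeded at OD 0.01 in PMG+AL medium with 23 nL pinned compound. After 24 h at 30 °C and 99% humidity, viability was read by BacTiter-Glo luminescence.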
2A StopGo: FMDV 2A StopGo reporter, luciferase signal | human cells with a luciferase reporter of 2A StopGo recoding; control for the full effect not named in the record | Potency, µM (series often up to 57.9 µM), without a hit: at the top dose signal change, negative = less light | 1.2% of 410,000 active; active = well fitted falling curve with a large enough effect; inconclusive = small, poorly fitted or top-dose-only effect; inactive = no such curve, though single readings can be large or run the other way; tested in HEK293T cells; note: % is set by controls: 0 for no effect and ±100 for the full control effect; nearly all actives have a fitted effect of over 45% in size; luciferase light after 4 h
Cruzain noTriton: inhibitors of Trypanosoma cruzi cruzain without detergent; P25779; 2.3% of 200,000 active; Potency, µM, for inactives: max response, negative = inhibition, most hits filed as inhibitors; purified cruzain, Z-FR-AMC fluorescence, no detergent; active = well fitted curve in the direction sought with a large enough effect; inconclusive = small, poorly fitted or top-dose-only effect, or another doubt; inactive = no such curve, though single readings can be large; an effect the other way counts as inactive or inconclusive;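 note: plate controls were enzyme without inhibitor for no effect and buffer without enzyme for full effect; nearly all actives have a fitted effect of over 40% in size; top concentration of the series not given in the record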
Target sequence (P25779 123-467 limits assumed): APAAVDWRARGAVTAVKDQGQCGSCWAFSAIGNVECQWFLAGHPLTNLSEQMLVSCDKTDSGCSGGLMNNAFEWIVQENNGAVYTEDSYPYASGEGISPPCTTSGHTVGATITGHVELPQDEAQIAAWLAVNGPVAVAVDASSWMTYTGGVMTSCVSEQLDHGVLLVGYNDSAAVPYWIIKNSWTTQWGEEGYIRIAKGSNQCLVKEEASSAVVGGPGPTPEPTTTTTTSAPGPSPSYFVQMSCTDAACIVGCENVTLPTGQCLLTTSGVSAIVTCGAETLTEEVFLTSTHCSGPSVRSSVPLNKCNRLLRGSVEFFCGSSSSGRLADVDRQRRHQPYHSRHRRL
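Purified cruzain at 1.5 nM, pre-incubated 15 min with compound at room temperature in 100 mM sodium acetate pH 5.5, 5 mM DTT, 0.00005% Triton X-100. Reaction started with 2 uM Z-FR-AMC; AMC fluorescence increase over 60 s gives rate.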
Cruzain inh Det: blocks cruzain activity in presence of Triton detergent; P25779; purified cruzain, Z-FR-AMC fluorescence, 0.01% Triton; Potency, µM, inactives show max response, negative = inhibition, usual class: inhibitors; 0.43% of 200,000 active; active = well fitted curve in the direction sought with a large enough effect; inconclusive = small, poorly fitted or top-dose-only effect, or another doubt; inactive = no such curve, though single readings can be large; an effect the other way counts as inactive or inconclusive;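 note: plate controls were neutral wells for no effect and buffer without enzyme for full effect; nearly all actives have a fitted effect of over 40% in size; top concentration of the series not given in the record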
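Cysteine protease activity tested under reducing, mildly acidic conditions (100 mM sodium acetate pH 5.5, 5 mM DTT) plus 0.01% Triton X-100. Cruzain 1.5 nM; substrate Z-FR-AMC 2 uM; 15 min compound preincubation at room temperature.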
LASV entry inh: inhibitors of Lassa virus binding or cell entry; 1.2% of 300,000 active; AID 540256; Lassa virus pseudotype entry inhibition, cell reporter; control for the full effect not named in the record; Potency, µM (top dose mostly 37.9 µM), for the others: at the top dose activity change, negative = inhibition, usual class: inhibitors; active means well fitted inhibition curve with a large enough effect; inconclusive means small, poorly fitted or top-dose-only effect, or effect the other way; inactive means flat fitted curve, though single readings scatter; tested in HEK293 cells; note: % is set by controls: 0 for no effect and ±100 for the full control effect; nearly all actives have a fitted effect of over 50% in size; luciferase read-out
Marburg entry inh: inhibitors of Marburg virus binding or cell entry; Marburg virus pseudotyped entry inhibition, cell reporter; control for the full effect not named in the record; about a third of the inactives were read at about 46 µM; Potency, µM (doses to about 37.8 µM), inactives show at the highest dose activity change, negative = inhibition, most hits filed as inhibitors; 1.8% of 300,000 active; AID 540276; active = well fitted inhibition curve with a large enough effect; inconclusive = small, poorly fitted or top-dose-only effect, or effect the other way; inactive = flat fitted curve, though single readings scatter; tested in HEK293 cells; about a fifth of its hits are not listed in these tables; note: % is set by controls: 0 for no effect and ±100 for the full control effect; luciferase read-out
SARS PLP yeast: blocks SARS-CoV papain-like protease in a yeast assay | Potency, µM (highest dose often 32.9 µM), without a hit: at the top dose activity, positive = growth rescue | S. cerevisiae expressing SARS-CoV PLpro, growth rescue; control for the full effect not named in the record | 0.19% of 330,000 active; note: 0% is about no effect; nearly all actives have a fitted effect of over 55% in size; growth read by luminescence after 48 h
NS1 function inh: influenza NS1 inhibition; S. cerevisiae slowed by influenza A NS1, growth recovery by OD600; Potency, µM (doses to about 46.1 µM), inactives show top-dose activity, positive = more growth; 0.4% of 270,000 active; note: actives are rising curves; nearly all actives have a fitted effect of over 50% in size
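OD600 was taken as the measure of yeast growth restored by compound in an NS1-expressing S. cerevisiae strain. Cells had been washed out of glucose medium and diluted 1:100 into galactose -URA medium, pH 6.0.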
* = called active by the depositor; ? = inconclusive; nt = not tested or not shown; & = joins results of further samples; [ ] = dose if it differs, or a comment. Unless noted, calls come from the whole dose curve; as a rule, active means well fitted rising curve with a large enough effect; inconclusive means small, poorly fitted or top-dose-only effect; inactive means no such curve, though single readings can be large or run the other way. Potency is the fitted concentration of half-maximal effect.

SMILES | RE007 growth inh | 2A StopGo | Cruzain noTriton | Cruzain inh Det | LASV entry inh | Marburg entry inh | SARS PLP yeast | NS1 function inh
CN(C(=O)COC(=O)c1nc(Cl)ccc1Cl)C1CCS(=O)(=O)C1 (stereo not drawn) | 6% | 2% | nt | nt | 9% | 11% | -4% | 12%
CC12CC(c3ccccc3O1)C(/C(N)=N/NC(=O)c1ccc(F)cc1)C(=O)N2 (stereo not drawn) | 3% | 0% | 7% | -2.0% | 1% | -11%[46.1 µM] | 12% | -2%
CCN(CC)C(=O)N1CCC(NC(=O)c2ccccc2)CC1 | -1% | -10% | -5% | 7.3% | 1% | ? | 2% | 0%
Cc1cc(C)cc(N(CC(=O)NCc2ccco2)S(=O)(=O)c2c(C)noc2C)c1 | -5% | -2% | 4% | -0.1% | nt | nt | -8% | -10%
CCOC(=O)c1c(NC(=O)c2cc(-c3cccc(Cl)c3)on2)sc(C)c1C | nt | -13% | 4% | -4.8% | 19%[46.1 µM] | 4%[46.1 µM] | nt | nt
COc1ccc(S(=O)(=O)N2CCOCC2)cc1NC(=O)c1ccc(Cl)cc1 | 10% | -8% | nt | nt | 2% | 2%[46.1 µM] | nt | nt
CN(C)c1ccc(C=c2c3ccccc3n3c2c2ccccc2[n+]3C)cc1 | ? | 25µM* | nt | nt | 7.1µM* | ? | nt | nt
CC1CCN(S(=O)(=O)c2ccc3c(c2)N(CC(=O)NCCCN(Cc2ccccc2)C(C)C)C(=O)CO3)CC1 | 11% | 26% | nt | nt | -1%[46.1 µM] | ? | 13% | -19%
CC(=O)Nc1ccc2c(c1)ncn2C1CCCCC1 | 6% | 19% | nt | nt | 6% | 12% | nt | nt
COc1ccc(Br)cc1C(=O)Nc1cccc(C)c1C | 10% | -10% | ? | -1.6% | 9% | 13% | 5% | 17%
COc1cc(C2c3cc4c(cc3OC(NCc3ccccc3)C2C)OCO4)cc(OC)c1OC (stereo not drawn) | 15% | -18% | nt | nt | ? | -28% | nt | nt
Cc1ccc(CN2CCN(Cc3ccc(-n4cccn4)cc3)CC2CCO)cc1 (stereo not drawn) | -1% | -30% | nt | nt | -12% | 0%[46.1 µM] | 0% | -1%
CCOC(=O)c1[nH]c2ccccc2c1NC(=O)c1ccccc1F | nt | -14% | 0% | -9.8% | 5%[46.1 µM] | ? | nt | nt
COc1ccc(/C=N/NS(=O)(=O)c2ccc(C)cc2)cc1OC(=O)c1ccccc1 | 0% | 23% | ? | -4.4% | -13% | -8% | nt | 7%
CC(C)(C)C(=O)CN1C(=O)NC(c2ccccc2)(c2ccccc2)C1=O | -12% | 3% | nt | nt | -26%[46.1 µM] | -2%[46.1 µM] | 6% | 1%
Cc1ccc(NC(=O)c2ccc3c(=O)n4c(nc3c2)CCCCC4)cc1F | 4% | -10% | nt | nt | 6%[46.1 µM] | ? | -4% | -16%
CCC(C)NC(=O)CC(NS(=O)(=O)c1ccc(NC(C)=O)cc1)C(C)C (stereo not drawn) | -4% | -2% | nt | nt | -5% | -31% | 3% | nt
CCOc1ccc(OCCNC(=O)c2ccc3c(c2)nnn3CC)cc1 | 19% | -15% | nt | nt | -19% | 28% | 1% | nt
CC(=O)c1cccc(N(CC(=O)NCC2CCCO2)C(=O)CCC(=O)Nc2cc(C)on2)c1 (stereo not drawn) | -3% | -4% | 4% | 0.3% | 8% | 24% | 10% | ?
CCn1c(SCC(=O)c2cc(OC)ccc2OC)nnc1-c1ccncc1 | 3% | nt | nt | nt | 1% | 9% | nt | 9%
COc1cccc2sc(N(CCN(C)C)C(=O)c3ccc(S(=O)(=O)N4CCCC4)cc3)nc12 | -4% | 4% | nt | nt | -16% | -2% | -3% | 1%
Nc1ccccc1C(=O)OCCc1ccccc1 | -7% | -5% | -3% | -9.1% | nt | nt | -3% | nt
Cc1cc(C)cc(OCC(=O)OCC(=O)N(C)CC(=O)Nc2ccc(F)cc2)c1 | -21% | -7% | nt | nt | -11% | ? | -4% | nt
COc1ccc2[nH]c3c(c2c1)CCN=C3C | 14%[18.4 µM] | -7% | 13µM* | -12% | nt | nt | nt | nt
O=C(Nc1cccc(C(F)(F)F)c1)NC1CCCCC1 | 1% | 20% | -9% | -5.9% | 4µM* | 14% | 3% | -5%
COc1ccc(N2CCN(S(=O)(=O)/C=C/c3ccccc3)CC2)cc1 | -8% | 10% | ? | -0.2% | -2% | 19% | -1% | -35%
Cc1oc(-c2ccccc2)nc1Cn1cccc1C1=NC(c2ccccc2)CO1 (stereo not drawn) | 8% | ? | -4% | -1.4% | ? | 20µM* | -16% | -33%
COc1ccc2[nH]c3c(NCCN(C(C)C)C(C)C)ncnc3c2c1 | -1% | -17% | 13µM* | ? | -9% | 11µM* | -3% | -32%
Cn1cc(C2OC(=O)c3ccccc32)c2ccccc21 (stereo not drawn) | -19% | -5% | nt | nt | -3%[46.1 µM] | ? | nt | nt
CCOc1ccc(-c2cccc(NC(=O)c3ccc(Br)o3)c2)nn1 | -27% | 30%[activator] | nt | nt | -14% | 17% | -4% | nt
O=C(CSc1ccccc1)Nc1ccc2c(c1)OCO2 | -17% | 40%[activator] | nt | nt | ? | ? | 0% | -14%
COc1cc(-c2nc(N)n[nH]2)cc(OC)c1OC | -13% | -5% | 5% | 3.1% | -1% | 5% | 4% | 7%
COc1ccc(CCNc2ccc(C(CC(N)=O)NC(=O)c3ccc(Br)cc3)cc2[N+](=O)[O-])cc1 (stereo not drawn) | 5% | -25% | nt | nt | nt | nt | 0% | -11%
Cc1nn(Cc2ccccc2)c(C)c1NS(=O)(=O)c1ccccc1 | 27% | -8% | nt | nt | -20% | -5% | -7% | -4%
CC(C)CCn1nnnc1CN1CCN(C(=O)c2ccco2)CC1 | -6% | 4% | nt | nt | 23% | 1% | -1% | -2%
O=C(CN1C(=O)C2C3C=CC(C4CC34)C2C1=O)NCc1ccco1 (stereo not drawn) | 4% | 12% | nt | nt | 4% | -29%[46.1 µM] | 0% | 6%
O=C(CCN1CCOCC1)N/N=C/c1cc([N+](=O)[O-])ccc1OC(F)F | 0% | -10% | nt | nt | 18%[46.1 µM] | 6%[46.1 µM] | -1% | nt
COc1ccc([N+](=O)[O-])cc1NC(=O)c1ccc(N(Cc2ccccc2Cl)S(C)(=O)=O)cc1 | 13% | -22% | -60% | -1.2% | ? | ? | -10% | -7%
CCc1ccc(-c2nn(CC(=O)Nc3ccccc3C)c3c2cnc2ccc(C)cc23)cc1 | nt | 9% | -20% | -2.7% | 23%[46.1 µM] | nt | nt | nt
O=[N+]([O-])C(=C1Nc2ccccc2N1)/C(Cl)=C(/Cl)Br | 25% | -8% | 13% | -6.5% | 19% | -8% | -18% | 9%
CCCN(CCC)CCCNC(=O)Cn1cnc2sc(C)c(S(=O)(=O)N3CCCCC3)c2c1=O | 27% | 19%&-1% | -4% | -0.3% | ? | 2%&22%[46.1 µM] | -2% | -3%
CCC(=O)Nc1cccc(C(=O)Nc2nccs2)c1 | -6% | 25% | nt | nt | 16% | ? | 0% | 1%
O=C(COc1ccc(Br)cc1Br)NN1C(=O)c2ccccc2C1=O | 6% | 6% | nt | nt | ? | ? | nt | nt
CCOC(=O)c1c(C)c(-c2ccccc2)n(CC(=O)NCCc2ccc(C)cc2)c1C | nt | -8% | -3% | 0.3% | nt | 0%[46.1 µM] | nt | nt
COc1ccc(C(CC(=O)Nc2ncccc2C)N2Cc3ccccc3C2=O)cc1 (stereo not drawn) | -23% | 33%[activator] | nt | nt | 20%[46.1 µM] | 2%[46.1 µM] | -1% | -5%
Cc1cc(S(=O)(=O)Nc2cccc(Cl)c2)c(C)s1 | -5% | 63%[activator] | nt | nt | 22%[46.1 µM] | ? | -13% | nt
CN(C)S(=O)(=O)c1cccc(NC(=O)COC(=O)/C=C/c2ccc([N+](=O)[O-])cc2)c1 | 2% | -15% | nt | nt | ? | 2% | -1% | nt
CCCCCCn1c(COc2ccccc2F)nnc1SCC(=O)NC1CCS(=O)(=O)C1 (stereo not drawn) | 1% | -2% | nt | nt | -21% | -4% | nt | nt
CCOc1ccc2nc(N(CCCN(C)C)C(=O)c3ccc(S(=O)(=O)N4CCc5ccccc5C4)cc3)sc2c1 | 12% | -5% | nt | nt | -2%[46.1 µM] | ? | 9% | -24%
Cc1ccc(CN2CCNC(=O)C2CC(=O)N2CCN(c3ncccn3)CC2)o1 (stereo not drawn) | -11% | 0% | nt | nt | 2% | 0% | -1% | 1%
CN1CCN(c2nc3c(c(=O)n(C)c(=O)n3C)n2CCSc2nnnn2-c2ccccc2)CC1 | -23% | -3% | nt | nt | -3%[46.1 µM] | 16%[46.1 µM] | 1% | 1%
CNC(=S)N1CCC(c2nc3ccccc3s2)CC1 | ? | 15% | nt | nt | nt | nt | 0% | -2%
CC1(C)CC(=O)C(C(c2cc([N+](=O)[O-])ccc2Cl)C2C(=O)CC(C)(C)CC2=O)C(=O)C1 | -9% | 9% | nt | nt | 18%[46.1 µM] | 4%[46.1 µM] | nt | nt
CCC1([N+](=O)[O-])COC(c2ccc(OC)cc2)OC1 (stereo not drawn) | -1% | -3% | nt | nt | ? | ? | nt | nt
COc1ccc(C)cc1NC(=O)c1ccc([N+](=O)[O-])cc1[N+](=O)[O-] | -5% | -3% | nt | nt | nt | nt | -1% | 3%
CCCC1=Nc2cc(C(=O)NCCCN(CC)CC)ccc2Sc2ccccc21 | nt | -23% | -6% | -1.2% | ? | ? | nt | nt
Nc1ncc(Br)cc1S(=O)(=O)NCCc1ccccc1 | -21% | 67%[activator] | nt | nt | -20%[46.1 µM] | 2%[46.1 µM] | -1% | -1%
O=C(c1cccc2ccccc12)N1CCCCC1 | 21% | -1% | nt | nt | 17%[46.1 µM] | 13%[46.1 µM] | 0% | 6%
Cc1nc2ccccc2c(=O)n1-c1cccnc1 | 19% | 15% | -4% | 1.0% | ? | ? | -3% | 1%
COc1ccccc1CNC(=O)C(=O)NCCC1CCCCN1S(=O)(=O)c1ccc(C)cc1 (stereo not drawn) | 23% | -7% | nt | nt | ? | ? | -4% | nt

Compounds were not picked by outcome; 4.6% or so of the library scored in one or more.
